# From PubChem BioAssay
# NPYLR7 agonist: activates Aedes aegypti NPYLR7 receptor | HEK293T NPYLR7/Galpha15, GCaMP6s calcium fluorescence | 0.15% of 270,000 active | activation, % at 10 µM; in the data active = activation above about 40%;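 also: 0% = vehicle and 100% = reference agonist at the receptor; some compounds past the cut are filed as inactive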
# NPYLR7 agonist max-min: further read-out of NPYLR7 agonist, marked with its call; activation, %; measured here: Max-Min RFU normalised activation; some inactives read as strong as hits;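 span of the calcium signal over five minutes; 0% = vehicle and 100% = native peptide agonist; compound fluorescence can raise it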
# Numbers without * were called inactive. Some of the compounds tested (hit frequency here may not be typical).
no.	SMILES	NPYLR7 agonist	NPYLR7 agonist max-min
1	O=C1NC(c2ccc(F)cc2)Nc2c1sc(=S)n2-c1ccccc1 (stereo unspecified)	-4.5	-6.9
2	CN(Cc1ccc2nsnc2c1)CC1CCCN(CCc2ccc(F)cc2)C1 (stereo unspecified)	5.8	3.8
3	Cc1ccc(-n2ncc3c(-n4nc(C)cc4NC(=O)c4ccc(F)cc4)ncnc32)c(C)c1	22.1	15.5
4	COc1ccc2nc(N(CCn3cccn3)C(=O)c3cc(C)no3)sc2c1	-19.9	-25.3
5	C=CCc1cc([N+](=O)[O-])ccc1O	6.1	15.3
6	C=CCCC(O)CN(Cc1cccc(OC)c1)CC1CC(c2ccccc2)=NO1 (stereo unspecified)	-2.7	2.7
7	Cc1ccc(CNC(=O)Cn2ccc(C(F)(F)F)n2)cc1	7.1	2.5
8	CC(=O)N1CCc2c(sc(NC(=O)CSc3ccc(C)cc3)c2-c2nc3ccccc3s2)C1	4.4	3.3
9	CCOC(=O)C1(Cc2cccc(Cl)c2)CCCN(C(=O)CN2C(=O)CSC2=O)C1 (stereo unspecified)	6.0	9.3
10	CC(C)C(=O)N1CCC(NCCN2CCCCC2CO)CC1 (stereo unspecified)	12.9	13.2
11	Cc1cc(C(=O)N2CCCC2)n2nc(C(C)(C)C)cc2n1	5.0	8.7
12	COCCNC(=O)C(NC(=O)c1ccc2c(c1)OCO2)C1CCN(C(=O)Nc2cccc(Cl)c2)CC1 (stereo unspecified)	7.1	3.6
13	O=C(NCCc1ccccn1)c1coc(CN(Cc2ccc3c(c2)OCO3)Cc2cccc(Cl)c2Cl)n1	12.2	8.8
14	CCc1c(C)sc2[nH]c(=S)n(-c3cc(C)ccc3C)c(=O)c12	-6.3	-8.3
15	O=C(c1ccc(Cl)cc1)N1CCCCC(Sc2nnnn2C2CC2)C1=O (stereo unspecified)	-5.1	-4.0
16	CC1C(=O)N(c2ccccc2Cl)CCN1C(=O)C1CCCC1 (stereo unspecified)	-10.5	-6.5
17	Cc1ccc(C2Nc3ccccc3N=C3CC(c4ccccc4)CC(=O)C32)s1 (stereo unspecified)	13.0	6.6
18	O=C(Nc1ccc(-c2onc3c2CCCC3)cc1)c1cc(Cl)sc1Cl	8.0	-3.6
19	CC(=O)Nc1ccc(NC(=O)CSc2ccc(C(F)(F)F)cc2[N+](=O)[O-])cc1	-6.7	-8.9
20	Cc1cn2c3c(=O)n(Cc4c(F)cccc4Cl)c(=O)n(C)c3nc2n1CC(=O)O	-0.7	6.7
21	O=C(NC1CC2CCC(C1)N2CCc1ccccc1)c1c(F)c(F)c(F)c(F)c1F (stereo unspecified)	2.1	-1.6
22	c1cncc(-c2nc3c(c(NCCCn4ccnc4)n2)CCNC3)c1	-1.3	-4.1
23	CCCOn1nnnc1-c1ccccc1	14.0	8.1
24	CC(=O)Nc1cccc(NC(=O)c2cc3c(cn2)CN(Cc2ccccn2)C3)c1	-3.2	-5.7
25	CN(C(=O)COC(=O)c1c(-n2cccc2)sc2c1CCSC2)C1CC1	-9.1	-9.4

# The list goes on; it opens with the 2 that closed the last part.
no.	SMILES	NPYLR7 agonist	NPYLR7 agonist max-min
24	CC(=O)Nc1cccc(NC(=O)c2cc3c(cn2)CN(Cc2ccccn2)C3)c1	-3.2	-5.7
25	CN(C(=O)COC(=O)c1c(-n2cccc2)sc2c1CCSC2)C1CC1	-9.1	-9.4
26	Cn1cnc(S(=O)(=O)NCC2(c3ccccc3)CCCCC2)c1Cl	4.3	1.5
27	CC(C)N(Cc1nccn1C)C(=O)C1CC(=O)N(C)c2ccccc21 (stereo unspecified)	2.9	-0.2
28	CCCNC(=O)C1(C)CCCN(Cc2noc(-c3ccccc3)n2)C1 (stereo unspecified)	2.2	-2.1
29	C=CCNC(=O)COc1ccc(NC(=O)CC)cc1	2.9	1.4
30	O=C(COc1ccccc1)Nc1c(-c2ccc(F)c(F)c2)nc2ccccn12	1.8	3.8
31	Cc1cc(C(=O)OCCN2CCN(C(=O)C3CCC3)CC2)c(C)o1	3.1	8.8
32	Cc1nn(CC(=O)Nc2sc3c(c2C(N)=O)CCC(C(C)(C)C)C3)c(C)c1[N+](=O)[O-] (stereo unspecified)	-0.1	-1.2
33	CC(C)C1N=C2c3ccccc3N=C(SCc3cc(=O)n4cc(Cl)ccc4n3)N2C1=O (stereo unspecified)	7.7	5.2
34	COc1ccc(-c2cccc(NC(=O)Nc3ccccc3F)c2)nn1	2.3	-0.2
35	C=c1ccccc1=C1NN=C(SC(C)c2nc3ccccc3c(=O)[nH]2)O1 (stereo unspecified)	1.8	4.8
36	Cc1ccc(C(=O)Nc2nc(CN3CCCC(C)C3)cs2)cc1NC(=O)c1ccco1 (stereo unspecified)	6.4	1.6
37	CC1(C(=O)Nc2nccs2)CCN1C(=O)c1ccccc1 (stereo unspecified)	13.8	11.9
38	C#CCOCC(O)CN(Cc1ccc(F)cc1)Cc1cccc(OC)c1OC (stereo unspecified)	-1.5	7.6
39	O=C(Nc1ccc2c(c1)OCO2)C1CCN(C(=O)COc2c(Cl)cccc2Cl)CC1	8.5	9.7
40	COc1ccccc1-n1c(SCc2ccc(C(=O)O)cc2)nnc1-c1ccccc1Cl	-0.3	-6.4
41	CC(C)CN(Cc1nccn1Cc1ccccc1)C(=O)NC(C)C	13.1	8.4
42	COC(=O)C(NC(=O)c1cnn2ccn(C)c12)c1cccc(C)c1 (stereo unspecified)	10.5	7.5
43	C=CCOC(=O)C1C(C)=Nc2nc(SCCC)[nH]c(=O)c2C1c1ccccc1C (stereo unspecified)	15.9	15.3
44	CCC1CN(CCCn2c(=O)oc3ccccc32)CCN1CCOC (stereo unspecified)	-0.5	-6.3
45	CC1(C)NC(=O)N(CCC(=O)O)C1=O	-1.0	-4.4
46	O=C(Cn1nc(C2CC2)c2cnn(-c3ccc(F)cc3)c2c1=O)Nc1ccccc1	10.0	7.4
47	CCc1[nH]n(-c2ccc(Cl)cc2)c(=O)c1C1=C([n+]2cc(C)cc(C)c2)C(=O)N(CCOC)C1=O	-3.5	3.3
48	Cc1nc(NC(=O)N(CCCCO)C2CC2)sc1C	-0.8	0.6
49	COCCNCC(=O)N(CCc1ccc(OC)c(OC)c1)Cc1ccc(C)o1	11.4	3.4
50	CC(N)=C(C#N)C(=O)CSc1n[nH]c(C(C)C)n1	4.3	2.4

# Of the compounds above, 6 have an aryl methoxy group:
no.	SMILES	NPYLR7 agonist	NPYLR7 agonist max-min
4	COc1ccc2nc(N(CCn3cccn3)C(=O)c3cc(C)no3)sc2c1	-19.9	-25.3
6	C=CCCC(O)CN(Cc1cccc(OC)c1)CC1CC(c2ccccc2)=NO1 (stereo unspecified)	-2.7	2.7
34	COc1ccc(-c2cccc(NC(=O)Nc3ccccc3F)c2)nn1	2.3	-0.2
38	C#CCOCC(O)CN(Cc1ccc(F)cc1)Cc1cccc(OC)c1OC (stereo unspecified)	-1.5	7.6
40	COc1ccccc1-n1c(SCc2ccc(C(=O)O)cc2)nnc1-c1ccccc1Cl	-0.3	-6.4
49	COCCNCC(=O)N(CCc1ccc(OC)c(OC)c1)Cc1ccc(C)o1	11.4	3.4

# Individual results from the list:
# entry 38 in NPYLR7 agonist max-min reads 7.6
# entry 50 in NPYLR7 agonist max-min reads 2.4

# Further records follow.
no.	SMILES	NPYLR7 agonist	NPYLR7 agonist max-min
51	CN(CCC#N)S(=O)(=O)c1ccc(Br)cc1	7.7	0.5
52	COc1cc(S(=O)(=O)n2cccn2)ccc1I	-0.6	32.2
53	CC(=O)Nc1cccc(NC(=O)C(NC(=O)C23CC4CC(CC(C4)C2)C3)C(C)C)c1 (stereo unspecified)	1.5	8.6
54	CCOC(=O)c1ccc2c(c1)nc(SCC(=O)NCC1CCCO1)n2Cc1ccc(C(F)(F)F)cc1 (stereo unspecified)	2.3	-2.4
55	CCN(CC)Cc1ccccc1CNC(=O)CCn1cnc2sc(C)c(C)c2c1=O	4.9	2.3
56	Cc1cc(N2CCCC2)nc(Nc2ccc(NS(=O)(=O)c3ccc4nc(C)sc4c3)cc2)n1	6.6	5.2
57	O=C(CN(CC1CCCO1)S(=O)(=O)c1cccc(C(F)(F)F)c1)N1CCc2sccc2C1c1ccc(Cl)cc1Cl (stereo unspecified)	19.0	30.3
58	NC(=O)c1cnn2c1NCC(CNCC1(c3ccccc3)CCCC1)C2 (stereo unspecified)	4.5	2.3
59	O=C(NC12CC3CC(CC(C3)C1)C2)c1cccnc1Nc1cccc(C(F)(F)F)c1	-19.9	-21.8
60	Cc1cccc(OCCN2C(=O)C3(OCCCO3)c3cc(C)ccc32)c1	-10.5	-11.0
61	Cc1nccn1-c1cc(NCCNC(=O)COc2ccccc2)ncn1	-15.7	-20.3
62	COCCS(=O)(=O)c1ccc(C(=O)NCc2nnc(C(C)C)s2)cc1	-0.1	-2.2
63	CC(C)c1cc(=O)oc2cc(O)ccc12	9.3	7.8
64	Clc1cccc(Oc2ncnc3c2oc2ccccc23)c1	2.4	3.3
65	Cc1ncc2c(n1)CCN(c1cc(Cl)nc(N)n1)C2	6.8	4.3
66	COc1ccc(-c2ccc(-c3noc(-c4ccc(OC)c(OC)c4)n3)c(OC)n2)cc1	5.4	0.1
67	O=C(NCc1nc2ccccc2[nH]1)c1c2c(nn1C1CCS(=O)(=O)C1)CCC2 (stereo unspecified)	-10.1	-13.2
68	N[C@@H]1CC[C@@H](NS(=O)(=O)c2ccccc2OC(F)(F)F)C1	5.3	3.8
69	Cn1cc(CN2CCC(C(O)c3cccs3)CC2)c(-c2cccc(Cl)c2)n1 (stereo unspecified)	10.4	3.3
70	COc1ccc(C2Oc3ccccc3N2C(C)=O)cc1 (stereo unspecified)	2.3	0.3
71	CCOC(=O)C1CCN(C(=O)c2nn(-c3ccc(OC)cc3)c(=O)n(Cc3ccccc3)c2=O)CC1	10.8	7.8
72	C=CCN1CCC(C(=O)NC(c2ccc(Cl)cc2)c2cccnc2)CC1 (stereo unspecified)	-8.0	-10.2
73	CN(Cc1ccccc1)c1cc(C(F)(F)F)nc(SCc2ccc(C(=O)N3CCCC3)cc2)n1	9.3	-2.0
74	COC(=O)c1ccc(N=Nc2c(-c3ccccc3)[nH]n(-c3nc(-c4ccccc4)cs3)c2=O)cc1	5.4	14.0
75	OCc1ccc(Oc2ccc(Br)cc2)c(F)c1	7.7	2.6

# The last 2 records of the part above lead into the next:
no.	SMILES	NPYLR7 agonist	NPYLR7 agonist max-min
74	COC(=O)c1ccc(N=Nc2c(-c3ccccc3)[nH]n(-c3nc(-c4ccccc4)cs3)c2=O)cc1	5.4	14.0
75	OCc1ccc(Oc2ccc(Br)cc2)c(F)c1	7.7	2.6
76	NC(=O)C(Oc1ccc(F)c(Cl)c1)c1ccccc1 (stereo unspecified)	-3.6	-3.3
77	Cc1ccc(C(O)c2ncc(-c3cccc4ccccc34)[nH]2)cc1F (stereo unspecified)	-0.5	-4.0
78	C=C(C)[C@@H]1CC=C(CN2CCC(NS(C)(=O)=O)CC2)CC1	20.5	14.7
79	CCc1nc(NCCc2ccccc2)c2ccc(Cl)cc2n1	0.2	7.2
80	CN(c1ncccc1C(=O)NC1C=CS(=O)(=O)C1)C1CCCCC1 (stereo unspecified)	20.1	14.4
81	FC(F)(F)c1nnc2n1N=C(c1cccc3ccccc13)CS2	4.4	11.6
82	Cc1cc(C(=O)CSc2nnc(C3CC3)n2C2CC2)c(C)n1Cc1cccs1	3.7	-0.4
83	COc1cc(CSc2nnc(NC(=O)C3CCC3)s2)cc(OC)c1	35.2	31.6
84	Cc1ccc(-c2onc3c2CCCC3)cc1NC(=O)COc1ccc(C(C)(C)C)cc1	4.0	3.2
85	CCc1nsc(SC2CCN(C(C)C)C2=O)n1 (stereo unspecified)	2.2	0.2
86	Cc1ccc(OS(=O)(=O)c2ccc(F)cc2)c(-c2nc3ncccc3o2)c1	-3.2	0.4
87	Cc1[nH]cnc1-c1n[nH]c(=O)n1CCc1ccccc1	13.8	-2.4
88	O=C(NC1CCCCCC1)C1CCC(CNc2c(NC3CCCCC3)c(=O)c2=O)CC1 (stereo unspecified)	9.2	7.0
89	CCOC(=O)C1CCCN(c2ccc(-c3nc(C)no3)cn2)C1 (stereo unspecified)	2.5	0.3
90	COc1ccccc1C(=O)NC1CCCN(c2cccnn2)C1 (stereo unspecified)	6.5	1.2
91	Cc1cc(C)cc(-n2ccnc(SCC(=O)Nc3ccccc3C)c2=O)c1	-8.6	-10.5
92	CCCCOC(=O)C1=C(C)N(C)C(=O)NC1c1ccccc1 (stereo unspecified)	-3.3	-7.9
93	CCc1oc(C(=O)OC)cc1CN1CCCCC1C(C)O (stereo unspecified)	2.8	3.3
94	O=c1oc2ccccc2n1CO	5.2	2.3
95	Cc1csc(SCC(=O)N2CCn3c(C(N)=O)cnc3C2)n1	12.1	10.1
96	Cc1cc(OCC2CN(C(=O)Cc3nc(-c4cccc(F)c4)oc3C)CCO2)ccc1Cl (stereo unspecified)	27.3	28.3
97	Cc1cc(=O)[nH]c(-n2nc(C3CC3)cc2NC(=O)c2ccccc2C(F)(F)F)n1	-2.8	-3.1
98	CCc1nc2ccc(C(=O)NCCc3c[nH]c4ccccc34)cn2c1N(C)Cc1ccncc1	0.0	-11.9
99	COc1ccc(C)cc1NC(=O)NC1C2COCC1CN(CCOc1ccccc1)C2 (stereo unspecified)	16.1	7.7
100	CN(C)C(CO)C(O)c1ccc([N+](=O)[O-])cc1 (stereo unspecified)	18.1	7.8
101	Cc1nn2c(NCCCn3ccnc3)cc(C(C)C)nc2c1-c1ccccc1	5.6	23.3
102	COc1ccc(CCN(C)c2nc(Cc3ccc(Cl)cc3)ns2)cc1OC	22.9	33.4
103	CCN(CC)S(=O)(=O)c1ccc(S(=O)(=O)N(C)C)cc1	-5.6	8.6
104	CC(=O)N1CCC(Oc2ccc(Cl)cc2C(=O)NCCOc2cccnc2)CC1	8.3	9.0
105	Cc1ccc(C)c(-n2cnnc2SCC(=O)N2CCCCC2C)c1 (stereo unspecified)	1.1	-2.4
106	COc1ccc(OC)c(S(=O)(=O)Nc2ccccc2C(F)(F)F)c1	2.5	1.0
107	COc1ccc(C(=O)NC2CCCCC2)cc1Br	4.1	-0.3
108	CCCCCCCC(=O)NN=Cc1ccccc1	-0.3	-2.2
109	CCN(CC)CCOC(=O)C1(c2ccc([N+](=O)[O-])cc2)CCCC1	1.5	-13.8
